# H5N1 antiviral = antiviral screen in MDCK cells, H5N1 avian flu; cytopathic effect, luminescence, 72 h; active compounds read high; no value below 0 was filed and about half of the inactive calls have no number; reference of the scale not given here; inhibition, % at 50 µM; 96,000 tested, 0.07% active; in the data active = inhibition above about 25%
# The depositor's hits bear a star; i = inactive. An excerpt; rates above refer to the full screens.
SMILES,H5N1 antiviral
COC(=O)CSc1nc(NC#N)nc(NC(C)C)n1,i
CCN(CC#CCC(O)(c1ccccc1)C1CCCC1)C(C)C (configuration not stated),2.8
NC(=O)NC(Cc1ccccc1)C(=O)Nc1ccc(S(N)(=O)=O)cc1 (configuration not stated),i
COc1cccc(NC(=O)N2CCN(C(=O)C(Cc3ccc(OC)c(OC)c3)NC(C)=O)CC2)c1 (configuration not stated),i
COc1ccccc1-c1nn2c(C(F)(F)F)nnc2s1,i
O=C(O)c1ccc2cc[nH]c2c1,i
CCC(Sc1nc2ccccc2[nH]1)C(=O)Nc1cc(C)on1 (configuration not stated),i
O=C(c1ccncc1)c1ccc(NS(=O)(=O)c2ccc(Br)s2)cc1,0.1
CCOc1cc(C2C3=C(CCCC3=O)NC3=C2C(=O)CCC3)ccc1OCCO,0.2
O=C(Nc1cccc(Cl)c1)C1=Cc2cc(Cl)ccc2OC1,i
Cc1cc(=O)[nH]c(SCc2nc3ccccc3s2)n1,i
CCC(=O)N1CCc2cc(S(=O)(=O)NC(C(=O)NCc3ccc(F)cc3)C(C)C)ccc21 (configuration not stated),i
COc1ccccc1N1CCN(C2CCN(C(=O)c3cc(OC)c(OC)c(OC)c3)CC2)CC1,i
COc1ccc(S(=O)(=O)NNC(=O)c2cc3cc4ccccc4nc3s2)cc1,i
N#Cc1nc(COc2ccccc2)oc1N1CCOCC1,0.6
COc1cccc(-n2c(SCC(=O)N3CCOCC3)nnc2-c2c[nH]c3ccccc23)c1,1.4
CC(=O)Nc1ccc(-c2nnn(CC(=O)c3ccccc3)n2)cc1Cl,0.8
Fc1ccc(OCc2nc(-c3ccc(Br)o3)no2)c(F)c1,i
Cc1ccccc1N(C(=O)Cc1ccsc1)C(C(=O)NC1CCCCC1)c1ccc(F)cc1 (configuration not stated),0.2
Cc1cccc(NC(=O)c2snc3c(=O)[nH]cnc23)c1,0.8
CN(C)c1ccc(NC(=O)Cn2cc3c(n2)CCCC3)cc1,2.1
Cc1cc(NC(=O)CSc2nnnn2Cc2ccccc2)no1,i
CCOc1ccc(-c2[nH]nc3c2C(c2ccc4c(c2)OCO4)C(C#N)=C(N)O3)cc1OC (configuration not stated),i
Cc1cc(C)nc(NC(=O)CSc2nc3cc(Cl)ccc3s2)n1,1.3
O=C(CSc1nnc(-c2c[nH]c3ccccc23)o1)N1c2ccccc2CCc2ccccc21,4.9
COc1cc(C(=O)Nc2ccc(S(=O)(=O)Nc3onc(C)c3C)cc2)cc(OC)c1OC,0.6
O=C(CN1C(=O)NC2(CCc3ccccc32)C1=O)Nc1ccc(N2CCOCC2)cc1 (configuration not stated),0.8
Cc1ccccc1-c1cc(C(=O)Nc2sc(C(=O)OC(C)C)c(C)c2C#N)c2ccccc2n1,11.3
O=C(COC(=O)CNS(=O)(=O)/C=C/c1ccccc1)NC1CCS(=O)(=O)C1 (configuration not stated),i
CCOC(=O)C1=C(C)NC(=O)C1CC(=O)Nc1ccccc1 (configuration not stated),i
O=[N+]([O-])c1cccc(/C=C/c2nc(C=Nc3ccc4ccccc4c3)c(O)o2)c1,i
CCCCCC1CC1C(=O)N/N=C/c1ccc(N(C)C)cc1 (configuration not stated),1.0
Cn1c(Cc2c[nH]c3ccccc23)n[nH]c1=S,i
COc1ccc(/C(O)=C2\C(=O)C(=O)N(c3cc(C)on3)C2c2ccc(OC)c(OC)c2)cc1OC (configuration not stated),0.4
Nn1c(SCC(=O)Nc2ccc(F)cc2)nnc1-c1cccnc1,i
CC(C)CC(C(=O)Nc1ccc2c(c1)OCCO2)N1C(=O)c2ccccc2C1=O (configuration not stated),i
O=C1C2C3C=CC(C3)C2C(=O)N1/N=C/c1cc(Br)cc([N+](=O)[O-])c1O (configuration not stated),i
O=C(c1ccco1)N1CCN(C(=O)c2cc(-c3ccccc3)nc3ccccc23)CC1,0.2
CCOCCc1nnc(NC(=O)COC)s1,0.7
N#Cc1cc([N+](=O)[O-])ccc1Oc1cccc(/C=N/NC(=O)c2ccc(Cl)cc2)c1,0.1
CCCc1[nH]nc2c1C(c1cc(OC)ccc1F)C(C#N)=C(N)O2 (configuration not stated),i
Brc1cccc(-c2nnco2)c1,0.4
COc1cc(C2C(C#N)=C(N)Oc3c2oc(CO)cc3=O)cc(OC)c1OC (configuration not stated),1.3
CCn1c(CSc2nc3ccccc3s2)nnc1SCC(=O)c1ccc(O)c(O)c1,i
COc1ccc(NC(=O)c2cc(=O)c3ccccc3o2)cn1,0.6
Cc1nnc(-c2cnn(-c3ccccc3)c2N)n1Cc1ccncc1,i
c1ccc(-c2ccc(-c3ccccn3)nn2)nc1,i
Nc1[nH]nc2nc(N3CCOCC3)nc(-c3ccccc3)c12,4.3
Cc1ccc(NC(=O)c2ccccc2)cc1,i
COCC(=O)Nc1ccc(C)c(Cl)c1,2.1
# Carrying on:
SMILES,H5N1 antiviral
COc1ccc(N=C2SC(C(=O)O)CC(=O)N2C)cc1 (configuration not stated),0.4
Cc1ccc(S(=O)(=O)N2CCC(C(=O)N[C@H](C(=O)N3CCN(C)CC3)C(C)C)CC2)cc1,0.6
O=C(CSc1nc(SCC(=O)NCc2ccccc2)n(-c2ccccc2)n1)NCc1ccccc1,i
Cc1ccc([N+](=O)[O-])cc1NC(=O)c1ccc(-c2ccccc2)cc1,0.3
CCOCC(=O)Nc1cc(C(=O)Nc2ccccc2)ccc1Cl,i
CC(=O)Nc1sc(NC(=O)c2ccc(Cl)cc2)nc1-c1cccs1,i
CCC(=O)NCCn1c(C)cc2ccccc21,0.1
CCN(CC)c1ccc(NC(=O)COC(=O)C23CCC(=O)N2c2ccccc2S3)cc1 (configuration not stated),0.1
CS(=O)(=O)N(Cc1cc2ccccc2[nH]c1=O)C1CCCCC1,1.0
O=C(CN1C(=O)CC(c2ccccc2)=Nc2ccccc21)NCc1ccco1,1.1
CCOc1ccc(OCCN2C(=O)NC3(CCCc4ccccc43)C2=O)cc1 (configuration not stated),1.1
COC(=O)c1cc(-c2c(C)oc3cc(OC(C)C)ccc3c2=O)c(C)o1,0.9
Cc1cc(C)n(-c2ccc(C(=O)Nc3cc(C(F)(F)F)ccc3N3CCOCC3)cc2)n1,0.0
COc1cc(C(=O)OC2CCN(C)CC2)cc(OC)c1OC,i
CCOc1ccccc1/C=c1\sc2nc(-c3ccco3)nn2c1=O,i
O=C(c1ccccn1)N(CC1CCCO1)C1(C(=O)NC2CCCCC2)CCCCC1 (configuration not stated),i
COc1ccc(CCNC(=O)c2c(O)c3c([nH]c2=O)CCCC3)cc1,i
O=c1oc(-c2ccccc2)nc2c1C1(CCCCC1)Cc1ccccc1-2,i
CCOc1c(Br)cc(CNc2ccc3c(c2)OCCO3)cc1OC,i
O=C(c1ccc2c(=O)n(-c3ccccc3)c(=O)[nH]c2c1)N1CCN(c2ccc(F)cc2)CC1,0.7
COc1ccc(N(C(=O)c2ccco2)S(=O)(=O)c2cc(OC)ccc2OC)cc1,1.0
CCCCCC(=O)N1CCN(CCN=CC2=C(O)CC(c3ccco3)CC2=O)CC1 (configuration not stated),0.2
COC(=O)c1nc(NC2=NCCCCC2)n[nH]1,0.2
COc1cc(CNCCN2CCOCC2)ccc1OCc1ccc(Cl)cc1,i
Nc1nc(COc2ccccc2)cs1,2.5
O=C(CN1CCCCC1)Nc1ccccc1-c1ccccc1,i
COc1ccc2cc3c(N)nn(C(=O)Cc4ccc(Cl)cc4)c3nc2c1,5.1
Cc1oc(-c2ccccc2F)nc1CS(=O)(=O)CC(=O)NCCCN(C)C1CCCCC1,2.4
CCCC(=O)NNC(=O)CCC(=O)NCc1ccccc1,i
CC(NC(=O)c1cc2sccc2n1C)c1ccc2c(c1)OCCO2 (configuration not stated),0.1
O=C1c2nc3ccccn3c2C(=O)N1Cc1ccccc1,i
CC(=O)C1=C(C)NC(=O)NC1c1cccc(O)c1 (configuration not stated),0.1
CCc1ccc(-n2nc3ccc(NC(=O)c4ccc5c(c4)OCO5)cc3n2)cc1,0.1
CCOC(=O)c1cc2c(ccn2C)n1CC(=O)N1CCN(c2cccc(C(F)(F)F)c2)CC1,0.1
CC1=Nc2ncnn2C(c2ccccc2)/C1=N\O (configuration not stated),0.6
COc1cccc(C2CC(c3ccc(C)cc3)n3nc(N)nc3N2)c1 (configuration not stated),i
CCN1CCN(C(=O)COc2ccc(S(=O)(=O)N(C)Cc3ccccc3)cc2)CC1,i
Cn1c(NCc2ccco2)nc2c1c(=O)n(Cc1ccc(Cl)cc1)c(=O)n2C,0.7
CCOC(=O)C1C(=O)NC(N2CCN(c3ccccc3)CC2)=NC1c1ccco1 (configuration not stated),0.4
CSc1ccc(Cl)c(C(=O)OCC(=O)NC2CC2)c1,i
C=CCc1c(C)nc(SC)nc1Nc1ccc(C(=O)O)cc1,1.9
CC1CCC/C(=C\Nc2ccc3c(c2)OCO3)C1=O (configuration not stated),1.4
O=C(C1Cc2ccccc2CN1S(=O)(=O)c1cccs1)N1CCCCCC1 (configuration not stated),2.1
Cc1cc(C(=O)N2CCC(C(F)(F)F)n3nccc32)on1 (configuration not stated),i
CCCOc1cccc(C2/C(=C(/O)c3ccccc3)C(=O)C(=O)N2CCN(C)C)c1 (configuration not stated),0.3
O=C(CN1CCCN(Cc2ccc(F)cc2Cl)C1=O)NC1CCCCCCC1,1.8
C=CCSc1nnc(-c2c[nH]c3ccccc23)n1CCOC,i
O=C(Nc1ccc(Cl)cc1)[C@@H]1[C@@H]2C(=O)N(c3ccc4ccccc4c3)C(=O)[C@@H]2[C@H]2C=CC=NN21,i
COc1ccccc1COC(=O)Nc1c(C)nn(C)c1Cl,0.5
CN(C)S(=O)(=O)c1ccc2oc(SCC(N)=O)nc2c1,i

# Copied from the list:
# Cc1ccccc1N(C(=O)Cc1ccsc1)C(C(=O)NC1CCCCC1)c1ccc(F)cc1 (configuration not stated) @ H5N1 antiviral: 0.2
# CCOc1ccc(OCCN2C(=O)NC3(CCCc4ccccc43)C2=O)cc1 (configuration not stated) @ H5N1 antiviral: 1.1
# COc1ccc(NC(=O)c2cc(=O)c3ccccc3o2)cn1 @ H5N1 antiviral: 0.6

# The listing continues.
SMILES,H5N1 antiviral
Cc1cnc(C(=O)Nc2ccccc2-c2nnn(CC(=O)NC3CCCC3)n2)cn1,0.8
CCC(C)N1C(=O)c2ccccc2C1C(=O)NC1CCCCCC1 (configuration not stated),0.6
COc1c(Br)cc2c(C)c(C(=O)N3CCOCC3)oc2c1Br,i
COc1ccc(C)cc1NC(=O)CCC(=O)Nc1ccc2nc(N3CCN(C)CC3)cc(C)c2c1,i
CC(C)(C)OC(=O)NCCc1nnc(SCc2c(Cl)cccc2Cl)o1,i
CCc1nnc(NC(=O)CSc2nnc(CCc3nc4ccccc4[nH]3)n2C)s1,i
CCOC(=O)CSCC(=O)Nc1cc(C)ccc1C,i
Cc1ccc(C(=O)Nc2ccccc2C(N)=O)o1,1.7
COc1ccc(NC(=O)CSc2nnc(-c3ccccc3)n2Cc2ccco2)cc1OC,1.6
FC(F)(F)c1cccc(NCc2cn3cccnc3n2)c1,6.8
CCC(=O)OCCNc1cc(Sc2nc3ccccc3s2)c2nonc2c1[N+](=O)[O-],i
CC(=O)c1coc2c1cc(O)c1ccccc12,i
COC(=O)Nc1ccc(S(=O)(=O)N2CCCCC2C(=O)NCc2ccco2)cc1 (configuration not stated),i
O=C(c1ccccc1F)N1CCC(O)(c2cccnc2)CC1,i
CCN(CCCNS(=O)(=O)c1ccc2c(c1)CCN2C(C)=O)c1cccc(C)c1,1.3
CCCC(=O)n1nc(-c2ccc(Cl)cc2)nc1SC,0.6
COC(=O)C(C)N(c1ccc(C)cc1)S(=O)(=O)c1c(C)[nH]c(=O)[nH]c1=O (configuration not stated),0.4
Cc1ccc(CNC(=O)c2cc3c(=O)n4ccccc4nc3n(CC3CCCO3)c2=N)cc1 (configuration not stated),3.5
COc1ccccc1NC(=O)C1=C(C)Nc2nnnn2C1c1ccncc1 (configuration not stated),i
O=C1N(CCCN2C(=O)C3(OCCO3)c3ccccc32)c2ccccc2C12OCCO2,i

# Retrieved by structure from the entries so far:
SMILES,H5N1 antiviral
CCC(=O)OCCNc1cc(Sc2nc3ccccc3s2)c2nonc2c1[N+](=O)[O-],i
COC(=O)C(C)N(c1ccc(C)cc1)S(=O)(=O)c1c(C)[nH]c(=O)[nH]c1=O (configuration not stated),0.4
COC(=O)Nc1ccc(S(=O)(=O)N2CCCCC2C(=O)NCc2ccco2)cc1 (configuration not stated),i
CC(=O)c1coc2c1cc(O)c1ccccc12,i
COc1ccccc1NC(=O)C1=C(C)Nc2nnnn2C1c1ccncc1 (configuration not stated),i
O=C1N(CCCN2C(=O)C3(OCCO3)c3ccccc32)c2ccccc2C12OCCO2,i

# Back to the main list; the 4 compounds before the break are reprinted first.
SMILES,H5N1 antiviral
COC(=O)C(C)N(c1ccc(C)cc1)S(=O)(=O)c1c(C)[nH]c(=O)[nH]c1=O (configuration not stated),0.4
Cc1ccc(CNC(=O)c2cc3c(=O)n4ccccc4nc3n(CC3CCCO3)c2=N)cc1 (configuration not stated),3.5
COc1ccccc1NC(=O)C1=C(C)Nc2nnnn2C1c1ccncc1 (configuration not stated),i
O=C1N(CCCN2C(=O)C3(OCCO3)c3ccccc32)c2ccccc2C12OCCO2,i
COc1ccc(C(c2nnnn2C(C)(C)C)N2CCN(c3nc4ccccc4s3)CC2)cc1OC (configuration not stated),0.2
CCC(=O)/C=C1\Sc2ccc(OC)cc2N1CC,0.5
Cc1cc(=O)oc2cc(OCC(=O)NCc3ccncc3)ccc12,0.7
CC(C)OC(=O)CC(=O)CSc1nc2c(cc1C#N)CCC2,i
O=C(O)CCCC(=O)Nc1ccc(C(=O)N2CCCCC2)c(Cl)c1,i
Cc1cccc(C(=O)c2ccccc2C(=O)O)c1O,0.1
O=C(Cn1c(=O)oc2cc(S(=O)(=O)N3CCCCCC3)ccc21)NC1CCCCC1,i
COc1ccc(-n2cnc3cc(NS(=O)(=O)c4ccc(C)cc4)ccc32)cc1,i
Cc1n[nH]c(C)c1S(=O)(=O)N(CC(=O)NC1CCCC1)c1ccc(C(C)C)cc1,0.7
CCc1nnc(NC(=O)CN2CCN(c3ccccc3OC)CC2)s1,i
Cc1nnc(NC(=O)CSc2nnnn2Cc2ccccc2)s1,1.1

# Bioassay records from PubChem BioAssay.
